TSHR agonist = agonists of human thyroid stimulating hormone receptor. P16473. HEK293-CNG-TSHR cells (CNG channel as cAMP sensor), membrane potential dye, cAMP. Potency, µM (doses to about 57.1 µM), without a hit: at the top dose activation, hits mostly activators. 73,000 compounds, 0.48% hits; active = well fitted activation curve of enough size with the parental cells flat; inconclusive = any curve in the parental cells; inactive = parental cells flat and receptor cells flat or falling; note: potency is the fitted concentration of half-maximal effect; % of control where 0% means no effect; weak receptor curves with flat parental cells got no call and are not listed
Target sequence (P16473 whole entry, looked up): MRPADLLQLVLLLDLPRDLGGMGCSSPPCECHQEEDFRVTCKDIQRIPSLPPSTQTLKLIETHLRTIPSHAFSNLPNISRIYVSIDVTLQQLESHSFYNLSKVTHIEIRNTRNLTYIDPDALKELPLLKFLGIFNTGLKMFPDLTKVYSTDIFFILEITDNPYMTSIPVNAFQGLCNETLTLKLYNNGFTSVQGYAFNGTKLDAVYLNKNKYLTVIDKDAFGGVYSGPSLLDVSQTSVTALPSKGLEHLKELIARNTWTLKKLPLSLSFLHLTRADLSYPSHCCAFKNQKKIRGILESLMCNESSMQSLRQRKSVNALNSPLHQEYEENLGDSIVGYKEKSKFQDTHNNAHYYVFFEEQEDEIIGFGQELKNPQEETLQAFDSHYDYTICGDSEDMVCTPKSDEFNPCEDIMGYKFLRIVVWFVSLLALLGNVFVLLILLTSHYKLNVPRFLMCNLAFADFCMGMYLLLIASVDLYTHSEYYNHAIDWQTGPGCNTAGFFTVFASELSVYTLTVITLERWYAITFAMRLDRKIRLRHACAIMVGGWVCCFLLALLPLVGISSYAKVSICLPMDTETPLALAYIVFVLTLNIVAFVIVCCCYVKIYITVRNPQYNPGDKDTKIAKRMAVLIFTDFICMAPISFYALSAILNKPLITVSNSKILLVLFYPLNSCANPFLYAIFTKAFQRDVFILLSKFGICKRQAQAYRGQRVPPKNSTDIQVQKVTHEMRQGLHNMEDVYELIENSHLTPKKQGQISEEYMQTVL
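HEK 293 cells stably expressing TSHR and a modified CNG channel, with CNG-only parental cells as counterscreen, were preloaded 60 min at room temperature with membrane potential dye containing 100 uM RO 20-1724. Compound exposure was 30 min, and depolarization was read as fluorescence at 590 nm.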
A488 fluor = compound autofluorescence in A488 spectral region. max dye equivalency, M. 59,000 compounds, 0.1% hits. compound autofluorescence, A488 spectral region, dye equivalency; active compounds read high; active = above 10 nM dye equivalent; inconclusive = 1 to 10 nM; inactive = 1 nM or less; about half of its hits are not listed in these tables;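 note: highest value over a series up to 38 µM; compound alone in buffer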
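Compounds pin-transferred into 100 mM Tris buffer, pH 8.0, incubated 15 min at room temperature, then imaged with 480 nm excitation/540 nm emission filters. Fluorescence converted to Alexa 488 dye-equivalent concentration via an on-plate six-point A488 standard curve.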
AID923 = qHTS Assay for Allosteric/Competitive Inhibitors of Caspase-1: Spectroscopic Profiling in AFC Spectral Region; compound fluorescence, AFC spectral region (405/520 nm); almost no hit is shown here; AID 923, 2007; 75,000 compounds, 1.1% hits; Potency, µM (titrated, usually from 57.5 µM), inactives show at the highest dose fluorescence increase, most hits filed as activators; active = well fitted activation curve with a large enough effect; inconclusive = small, poorly fitted or top-dose-only effect;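 note: potency is the fitted concentration of half-maximal effect; 0% is about no effect; scaled to a free AFC standard on each plate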
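Baseline compound fluorescence (AFC region, 405 nm ex/520 nm em) taken from the intercept of kinetic reads with 50 nM caspase-1 and 5 uM Ac-WEHD-AFC; normalized to an on-plate AFC standard curve; compounds titrated up to 57 uM.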
A647 autofl = compound fluoresces in the A647 spectral region; Compound fluorescence, A647 channel (570/671 nm), Tris buffer; 59,000 tested, under 10 active; max dye-equivalent concentration, M; active means above 1 µM dye equivalent; inconclusive means 0.1 to 1 µM; inactive means 0.1 µM or less;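 note: values scaled relative to a standard on each plate; highest value over a series up to 38 µM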
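Fluorescence read (570 nm ex, 671 nm em) after 15 min RT incubation of compounds in 100 mM Tris buffer, pH 8.0; values expressed as dye-equivalent concentration against a six-point A647 standard series on each plate.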
Resorufin autofl = compound fluoresces in the resorufin spectral region; 59,000 compounds, 0.04% hits; max dye-equivalent concentration, M; Compound fluorescence, resorufin region 547/598 nm, buffer; active compounds read high; active = above 10 nM dye equivalent; inconclusive = 1 to 10 nM; inactive = 1 nM or less; a few of its hits are not listed in these tables; note: highest value over a series up to 38 µM
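Compounds in 100 mM Tris, pH 8.0, incubated 15 min at room temperature, then fluorescence read at 547 nm excitation/598 nm emission. Signal converted to dye-equivalent concentration via an on-plate six-point resorufin standard curve, per compound concentration.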
Starred values were filed as active, the others as inactive; i = inactive; ? = inconclusive; . = not tested or not shown; [ ] = remark or other dose.

SMILES	TSHR agonist	A488 fluor	AID923	A647 autofl	Resorufin autofl
CC(=O)c1ccc(NC(=O)C2CCCN2S(=O)(=O)c2ccc(C)cc2)cc1 (stereo not drawn)	4%	.	-2.9%	.	.
Cc1nc(NCCc2cnc[nH]2)c2oc3ccccc3c2n1	?	i	1.2%	3.3e-08	i
CC(C)(/C=N/O)/[N+]([O-])=C/c1ccco1	5%	i	-0.1%	2.7e-08	i
CCOC(=O)c1cc2sccc2n1Cc1ccccc1	?	i	2.1%	1e-09	i
COc1ccc(N(CC(=O)NC2CCCC2)C(=O)Cn2nnc(-c3ccc(C)cc3)n2)cc1OC	?	i	2.0%	2.5e-09	i
CN(C)c1ccc(C(c2nnnn2C(C)(C)C)N2CCc3ccccc3C2)cc1 (stereo not drawn)	?	i	0.2%	3.9e-09	i
Cc1nc2ccccn2c1C(=O)NCc1ccc2c(c1)OCO2	6%	i	-1.6%	3.6e-09	i
COc1ccc(C(=O)Nc2cccc(C(=O)N3CCCC3)c2)cc1	-3%	i	-2.8%	3.3e-08	i
O=C1CC(c2ccccc2)C(C(=O)Nc2ccccc2F)N1 (stereo not drawn)	3%	.	1.1%	.	.
O=C(C1CCN(C2CC(=O)N(c3ccc(F)cc3)C2=O)CC1)N1CCOCC1 (stereo not drawn)	0%	i	-2.5%	3.7e-08	i
c1ccc(Nc2nc(-c3cccnc3)cs2)nc1	-5%	i	-0.2%	1e-08	i
COc1ccc(N=c2scc(-c3ccc(S(=O)(=O)N4CCOCC4)cc3)n2CCCO)cc1	10%	i	0.6%	1e-09	i
CSc1nc(N)nc(SCC(=O)OC(C)C)c1C#N	.	i	.	2.9e-08	i
COc1ccc(NC(=O)c2cnn3c(C(F)(F)F)cc(-c4ccco4)nc23)cc1OC	-4%[11.4 µM]	.	-0.1%	.	.
CCOc1ccc(-c2nn[nH]n2)cc1	2%	i	0.3%	3.4e-08	i
Cc1ccc2oc3c(c(=O)c2c1)C(c1cccc(O)c1)N(c1ccccn1)C3=O (stereo not drawn)	-5%	.	-7.1%	.	.
COCCn1c(-c2ccccc2F)n[nH]c1=S	-3%	i	-1.8%	2.9e-08	i
COc1cc(Cn2c(-c3nonc3N)nc3ccccc32)ccc1C	?	i	1.3%	1e-09	i
O=C(Nc1ccccc1C(F)(F)F)N1CCC(n2c(=O)[nH]c3ccccc32)CC1	6%	i	1.1%	2.9e-08	i
Cc1ccc(NC(=O)CCCC(=O)O)c(Br)c1	0%[11.4 µM]	i	-0.1%	7.9e-09	i
Cc1cc(C)n2nc(CC(=O)NC3CCCCCC3)nc2n1	4%	i	0.6%	2.2e-08	i
COc1cccc(CNC(=O)c2ccccc2N)c1	9%	i	-0.8%	1e-09	i
CCCCCCC/C=C/C1=CC2(C)CC1(C)C(CCCCCCC)CC2=O (stereo not drawn)	-9%[11.4 µM]	.	-1.6%[11.5 µM]	.	.
Cc1cccc(OCCCC(=O)Nc2ccc(S(=O)(=O)Nc3onc(C)c3C)cc2)c1C	-3%	i	-0.3%	1.2e-08	i
CC(=O)c1c(C)oc(C)c1CSCc1ccc(C(=O)O)o1	-9%	.	2.6%	.	.
O=C(NCc1ccccn1)C1COc2ccccc2O1 (stereo not drawn)	.	i	1.4%	3.2e-08	i
Cc1ccccc1OCC(O)Cn1c(NCc2ccco2)nc2c1c(=O)[nH]c(=O)n2C (stereo not drawn)	-7%	i	-0.4%	1e-09	i
CCN(CC)CC(=O)c1c[nH]c2ccc(C)cc12	13%	i	-0.4%	3.4e-09	i
CC1Cc2ccccc2N1Cc1cc(=O)n2ccsc2n1 (stereo not drawn)	1%	i	7.0%	9.3e-09	i
CCOC(=O)N1CCN(c2nc3ccccc3nc2C(C#N)C(=O)NCCc2ccccc2)CC1 (stereo not drawn)	-9%	i	13%	1e-09	i
CN(C)CC1(c2ccccc2)CCCC1	2%	i	-0.4%	2e-09	i
O=C(NCCCN1CCCC1=O)c1csc2ccccc12	-7%	i	-0.2%	2.2e-08	i
CCOC(=O)C1Cc2ccccc2CN1 (stereo not drawn)	-8%	i	-0.1%	1e-09	i
N#Cc1c(N2C(=O)C3C4C=CC(C4)C3C2=O)sc2c1CCC2 (stereo not drawn)	.	i	2.0%	1.8e-08	i
CCC(CC)C(=O)NCCNC(=O)C(CC)CC	?	i	0.9%	1e-09	i
O=C(C1CCN(S(=O)(=O)c2cnc[nH]2)CC1)N1CCN(Cc2ccc3c(c2)OCO3)CC1	11%	i	-0.8%	8.1e-09	i
Cc1cc(C(=O)N2CCN(S(C)(=O)=O)CC2)cs1	-5%	.	5.7%	.	.
CC1=Nn2c(nnc2-c2ccc(F)cc2)SC1	-4%	i	1.5%	1e-09	i
CCOC(=O)c1cn(CC(=O)Nc2ccc3c(c2)OCCO3)nn1	-1%	i	0.5%	1e-08	i
CCC(=O)N(Cc1cc2cccc(C)c2[nH]c1=O)c1ccccc1OC	27%	i	0.9%	5.4e-08	i
C[C@@H](C(=O)NCc1ccccc1)[C@H]1C[C@]1(C)[C@H](NC(=O)OCc1ccccc1)c1ccccc1	?	.	-0.6%	.	.
O=C(CSc1nnc(-c2c[nH]c3ccccc23)n1-c1ccc(F)cc1)NCc1ccco1	-4%	i	0.5%	1e-09	i
COc1ccc(CN2CCOCC2)cc1Br	-7%	.	0.0%	.	.
CCOC(=O)c1c(NC(=O)c2nn(CC)cc2Br)sc(C)c1C	8%	i	3.0%	1e-09	i
COCCNC(=O)C(c1cccs1)N(CCc1ccccc1)C(=O)Cn1nnc2ccccc21 (stereo not drawn)	6%	i	-1.3%	1e-09	i
COc1ccc(-n2c(SCc3ccc(C#N)cc3)nnc2-c2ccccn2)cc1	21%	i	0.2%	1.8e-08	i
CCN(CC)C(=O)Oc1ccccc1NC(C)=O	-2%	.	-0.9%	.	.
CCCn1c(C)nc2c(N3CCC(N(C)C)C3)nc(C)nc21 (stereo not drawn)	4%	.	0.4%	.	.
CC(=O)CCc1c(C)[nH]c2ccc(NC(C)=O)cc2c1=O	-5%	.	-1.5%	.	.
CC(=O)c1cnc(Nc2nc(C)c3ccc(C)cc3n2)nc1C	5%	i	0.4%	1.6e-08	i

Structural class, the entries above with fluorine (seven)
SMILES	TSHR agonist	A488 fluor	AID923	A647 autofl	Resorufin autofl
O=C1CC(c2ccccc2)C(C(=O)Nc2ccccc2F)N1 (stereo not drawn)	3%	.	1.1%	.	.
O=C(C1CCN(C2CC(=O)N(c3ccc(F)cc3)C2=O)CC1)N1CCOCC1 (stereo not drawn)	0%	i	-2.5%	3.7e-08	i
COc1ccc(NC(=O)c2cnn3c(C(F)(F)F)cc(-c4ccco4)nc23)cc1OC	-4%[11.4 µM]	.	-0.1%	.	.
COCCn1c(-c2ccccc2F)n[nH]c1=S	-3%	i	-1.8%	2.9e-08	i
O=C(Nc1ccccc1C(F)(F)F)N1CCC(n2c(=O)[nH]c3ccccc32)CC1	6%	i	1.1%	2.9e-08	i
CC1=Nn2c(nnc2-c2ccc(F)cc2)SC1	-4%	i	1.5%	1e-09	i
O=C(CSc1nnc(-c2c[nH]c3ccccc23)n1-c1ccc(F)cc1)NCc1ccco1	-4%	i	0.5%	1e-09	i

Next section.
SMILES	TSHR agonist	A488 fluor	AID923	A647 autofl	Resorufin autofl
CC(C)(C)c1cc(CN2CCOCC2)c(C(=O)O)o1	3%	i	2.1%	1e-09	i
Nc1cccc(C(=O)Nc2ccc(N)cc2Cl)c1	-1%	.	2.3%	.	.
CCCCN(CC)CCNS(=O)(=O)c1ccc2c(c1)oc(=O)n2C	-2%	i	-1.0%	2.6e-08	i
Cc1ccc(S(=O)(=O)Cn2cnnn2)cc1	-2%	i	-0.1%	4.9e-08	i
O=C(CSc1nnc(-c2c[nH]c3ccccc23)o1)N1CCCCC1	1%	i	0.3%	1e-09	i
Fc1ccccc1N1CCN(CCCNc2ccc3nncn3n2)CC1	?	.	2.3%	.	.
CN1C(=O)NC(NC(=O)C2CCCCC2)(C(F)(F)F)C1=O (stereo not drawn)	.	i	0.2%	3.8e-09	i
Cc1ccc(C2N(c3ccc(F)cc3)C(=O)C3CCCN32)cc1 (stereo not drawn)	12%	.	-2.2%	.	.
O=C(O)Cn1c(SC2CCCCC2)nc2ccccc21	10%	i	-0.1%	2.7e-08	i
C1CCN(c2nc(N3CCCCC3)nc(N3CCNCC3)n2)CC1	-2%	i	0.2%	4.3e-08	i
Cc1ccc(C(=O)O)cc1[N+](=O)[O-]	?	.	3.6%	.	.
CS(=O)(=O)N1CCCC(C(=O)NCCc2ccc(Cl)cc2)C1 (stereo not drawn)	-2%	i	1.8%	1e-09	i
COc1ccc(-c2cnc(SCC(=O)Nc3cc(C)on3)n2Cc2ccco2)cc1	?	i	-1.8%	1e-09	i
COCCn1c(COc2ccc(OC)cc2)nc2ccccc21	?	i	0.3%	8.8e-09	i
CC1(C)CC2CC(C)(CN2C(=O)c2cc(-c3ccccc3O)on2)C1 (stereo not drawn)	0%	.	-2.9%	.	.
CN(CC(=O)Nc1ccc2c(c1)OCCO2)S(=O)(=O)c1cccc2cccnc12	-9%	.	0.5%	.	.
COC(=O)CSc1n[nH]c(-c2ccncc2)n1	8%	i	-0.9%	1.3e-08	i
COc1ccc(-c2nnc(SCC(=O)NC(=O)NCc3ccco3)o2)cc1	-2%[11.4 µM]	i	0.7%	2.8e-08	i
COc1ccc(C2NC3=C(CCC3)C3(C#N)C4(N=C(N)C23C#N)OCCO4)cc1 (stereo not drawn)	-1%	i	10%	7.6e-09	i
CCOC(=O)c1ccccc1NC(=O)CN1C(=O)CCS(=O)(=O)c2ccccc21	2%	i	-0.2%	1e-09	i
COC(=O)[C@@H](NC(=O)N(C1CCCCC1)C1CCCCC1)C(C)C	?	i	0.2%	3.1e-08	i
O=C(O)CSc1ccccn1	-2%	i	1.3%	2.9e-08	i
Nc1nonc1N1CCCCC1	2%	i	-0.7%	2.6e-08	i
CO[C@@]1(NC(=O)Cc2cccs2)C(=O)N2C(C(=O)O)=C(COC(N)=O)CS[C@@H]21	4%	.	2.9%	.	.
Cc1sc2nc(CN(CCc3ccccc3)C(=O)c3ccco3)[nH]c(=O)c2c1C	.	i	0.7%	1e-09	i
O=C(OC(C(=O)NCc1ccc2c(c1)OCO2)c1ccc(Cl)cc1)c1ccco1 (stereo not drawn)	?	i	1.7%	1.1e-08	i
O=C(OCc1ccco1)c1ccc(S(=O)(=O)N2CCCCC2)cc1	14%	i	1.7%	1e-09	i
O=S(=O)(c1ccccc1)N1CCN(C2CCN(Cc3ccccc3)CC2)CC1	8%	.	5.2%	.	.
CC1(C)Cc2c(c(N3CCCCC3)[nH]c(=S)c2C#N)CS1	.	i	.	2e-09	i
CN(C)C(=O)c1ccc(-c2nc(NCc3ccccc3)c3ccccc3n2)cc1	?	i	-2.0%	1e-09	i
C=CCOc1ccccc1CNn1nnnc1N	?	i	-0.8%	7.8e-09	i
Cc1ccc(C)n1-n1c(C)nc2sc(-c3ccccc3)cc2c1=O	?	.	1.8%	.	.
Cc1cccc(C)c1NC(=O)c1c(-c2ccccc2)noc1C	?	.	-2.2%	.	.
Cc1cccc(CNC(=O)c2ccccc2N)c1	0%	i	-1.4%	1.6e-09	i
Nc1ncnc2c1nc(Sc1ccc(Cl)cc1)n2[C@@H]1O[C@H]2COP(=O)(O)O[C@@H]2[C@H]1O	5%	i	-2.5%	3.1e-09	i
O=C(COC(=O)Cc1cccc(C(F)(F)F)c1)NCC1CCCO1 (stereo not drawn)	-3%	i	-0.2%	1e-09	i
O=C(Nc1cccc(C(=O)N2CCOCC2)c1)c1cncc(Br)c1	?	i	-1.6%	1.4e-08	i
Clc1ccc2nc(N3CCCCC3)[nH]c2c1	?	i	-0.3%	1e-09	i

Some of the compounds tested; the hit share may differ from the screen's.
